# Screening data (PubChem BioAssay)
# GIV Gai3 FP: inhibitors of GIV peptide binding to Galpha-i3, primary screen, biochemical, fluorescence polarization, FITC-GIV GBA peptide, rat Galphai3; Guanine nucleotide-binding protein G(i) subunit alpha-3 (Rattus norvegicus), P08753; 90 min; stronger effect = lower value; scaled: aluminum fluoride 0%, vehicle 100%; percent of control (FP), % (concentration not given with the values); 210,000 compounds, 0.42% hits;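 active = replicate mean at 85% of control or lower, very high polarization wells dropped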;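 note: wells of about 15 µL received 100 nL stock; the first replicate is given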
# Target sequence (P08753 whole entry, looked up): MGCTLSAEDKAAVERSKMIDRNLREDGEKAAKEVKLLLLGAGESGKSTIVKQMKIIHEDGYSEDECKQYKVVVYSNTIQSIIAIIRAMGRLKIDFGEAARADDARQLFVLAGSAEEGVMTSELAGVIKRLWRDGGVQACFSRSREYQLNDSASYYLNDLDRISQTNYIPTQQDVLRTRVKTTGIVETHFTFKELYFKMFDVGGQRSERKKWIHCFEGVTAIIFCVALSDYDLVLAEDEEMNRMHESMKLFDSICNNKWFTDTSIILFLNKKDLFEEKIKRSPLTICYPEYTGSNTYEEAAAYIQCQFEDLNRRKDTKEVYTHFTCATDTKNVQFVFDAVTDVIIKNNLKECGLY
# HCMV NEC inh: inhibitors of HCMV UL50-UL53 interaction, biochemical, HTRF; HCMV UL50-UL53 nuclear egress complex (human cytomegalovirus); normalized percent inhibition; inhibition, % (no concentration beside the values); 190,000 compounds, 0.15% hits; AID 1918969, 2023;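 active = both replicates at 50% or more, plus weaker picks with an unusually low signal ratio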;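 note: stock transfer was 100 nL into about 20 µL; 0% = negative control wells and 100% = wells with untagged competitor protein; inactives centre near -12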
# Sa growth inh: S. aureus growth inhibition at 42 and 30 °C, primary screen, LtaS inhibitor project, RN4220, two temperatures | OD600, 20 h, 42 °C; stronger effect = lower value | relative growth, % (test concentration not listed) | 170,000 compounds, 0.53% hits | AID 720641, 2013;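 active = growth at 42 °C up to 50% and 20 or more points under that at 30 °C, or under 10% at both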;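 note: 300 nL library stock went into each well; scaled to the means of positive and negative controls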
# Sa growth inh second temp: second read-out of Sa growth inh, no call of its own (marks repeat the call); relative growth, %; measured here: growth at 30 °C;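 optical density after 20 h as mean of two plates; 100% = untreated growth and lower means inhibition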
# * hit, by the source's call; x = no result given; & = joins results of further samples.
SMILES,GIV Gai3 FP,HCMV NEC inh,Sa growth inh,Sa growth inh second temp
COc1ccc(-c2noc(-c3nnn(-c4ccc(C)cc4)c3N)n2)cc1,106,32,x,x
Cc1ccc(-c2cc(C(F)(F)F)c3c(=O)[nH]c(N)nc3n2)cc1,x,-31,68,79
NC(=O)c1c(NC(=O)CN2C(=O)S/C(=C\c3ccc(F)cc3)C2=O)sc2c1CCCC2,108,-11,x,x
O=C(Cn1c(=O)n(-c2ccccc2)c(=O)c2ccc(C(=O)NCc3ccc4c(c3)OCO4)cc21)Nc1ccc(F)cc1,99&100,1&-5,87,100
COc1ccc(OC)c(CNC(=O)c2ccc3cnn(Cc4cccc(Cl)c4)c3c2)c1,108,-5,x,x
C(=N\C(/N=C/c1ccccc1)c1ccccc1)/c1ccccc1,x,-4,85,92
COc1ccc(-c2cc(C(=O)N(C)Cc3ccccc3)no2)cc1S(=O)(=O)N1CCOCC1,103,-20,103,92
CC(C)NS(=O)(=O)c1ccc(N=Cc2c(O)n(C)c(=O)n(C)c2=O)cc1,x,3,78,87
O=C(NCc1ccc(Cl)cc1)c1ccc2nc[nH]c2c1,x,-10,76,88
CCn1nc(C)c2c1c(=O)n(CCc1ccccc1)c(=O)n2CC(N)=O,103,-5,x,x
CC(=O)Nc1cccc(NC(=O)c2c[nH]c(=O)n(-c3ccccc3)c2=O)c1,106,-19,103,89
COc1ccc(C2=NN(S(=O)(=O)c3ccccc3)C(c3ccc(Br)cc3)C2)cc1 (stereo not given),107,-11,x,x
CC(/C(O)=C(\C#N)c1nc2ccccc2s1)N1C(=O)c2ccccc2C1=O (stereo not given),x,-11,94,71
COc1ccc(CCNC(=O)c2ccc(-n3nnc4cccnc43)cc2)cc1OC,115,-20,x,x
Cc1ccc2cc(CN(C)C(=O)c3cccc(Cl)c3)c(=O)[nH]c2c1,103,-5,122,89
O=C(NCC1CCCO1)c1c(NC(=O)c2nn(-c3ccc(F)cc3)ccc2=O)sc2c1CCCC2 (stereo not given),104,-20,x,x
CCC(Sc1nnc(-c2ccc(OC)cc2)c(-c2ccc(OC)cc2)n1)C(=O)NC1CCCCC1 (stereo not given),110,x,114,88
Cc1cc(C)n(-c2nc3ccccc3nc2N2CCN(S(=O)(=O)c3ccc(F)c(C)c3)CC2)n1,101,x,89,97
O=C(Cn1nnc2ccccc2c1=O)NC1CCCCC1,108,-12,103,95
CCN1CCOC(=O)C1CC(=O)Nc1ccc(C(C)=O)cc1 (stereo not given),106,1,90,73
CC(NC(=O)c1cccc(S(=O)(=O)N(C)C)c1)c1ccccc1 (stereo not given),x,11,87,97
CCC(=O)Nc1ccc(-c2nn3c(CC)nnc3s2)cc1,107,18,99,99
C=CCc1c(C)nc(SC)nc1Nc1ccccc1,x,-2,71,81
CCCC(CCC)=NNc1ncnc2sc(C)c(C)c12,x,-36,95,75
CCOC(=O)CSc1nc2ccc(NC(=O)c3cccc(F)c3)cc2s1,107,-8,101,85

# Shown with values under each structure: part of the list above
# Value order: GIV Gai3 FP | HCMV NEC inh | Sa growth inh | Sa growth inh second temp
> COc1ccc(CCNC(=O)c2ccc(-n3nnc4cccnc43)cc2)cc1OC
  115 | -20 | x | x
> Cc1ccc2cc(CN(C)C(=O)c3cccc(Cl)c3)c(=O)[nH]c2c1
  103 | -5 | 122 | 89
> O=C(NCC1CCCO1)c1c(NC(=O)c2nn(-c3ccc(F)cc3)ccc2=O)sc2c1CCCC2 (stereo not given)
  104 | -20 | x | x

# Copied from the list:
# GIV Gai3 FP result of O=C(Cn1nnc2ccccc2c1=O)NC1CCCCC1 → 108
# GIV Gai3 FP result of Cc1ccc2cc(CN(C)C(=O)c3cccc(Cl)c3)c(=O)[nH]c2c1 → 103
# GIV Gai3 FP result of CCC(Sc1nnc(-c2ccc(OC)cc2)c(-c2ccc(OC)cc2)n1)C(=O)NC1CCCCC1 (stereo not given) → 110
# HCMV NEC inh result of COc1ccc(C2=NN(S(=O)(=O)c3ccccc3)C(c3ccc(Br)cc3)C2)cc1 (stereo not given) → -11

# Following part.
SMILES,GIV Gai3 FP,HCMV NEC inh,Sa growth inh,Sa growth inh second temp
COC(=O)c1ccc(NC(=O)CSC2=NC(c3ccccc3)CC(=O)N2)cc1 (stereo not given),103,4,94,86
Cc1c2cnn(CC(=O)N3CCN(c4ccccc4)CC3)c(=O)c2c(C)n1Cc1ccccc1Cl,108,1,117,90
O=c1c2c3nc4ccccc4nc3n(C3CCCC3)c2ncn1Cc1ccccc1,100,-26,109,104
O=C(NCCc1nc(-c2ccc(Cl)cc2)no1)c1cccs1,103,-16,98,87
CNC(=O)NC1CC(=O)N(c2ccc(OC)cc2)C1 (stereo not given),103,-16,102,94
COc1ccc2nc(-c3ccco3)c(-c3ccco3)nc2c1,96,-38,106,55
Cc1cc(C)cc(NC(=O)CSc2nc(-c3cccc(Cl)c3)nc3c2Cc2c(CO)cnc(C)c2O3)c1,109,x,105,118
CC1CCCC(C)N1C(=O)Cn1cc(C(=O)C2CC2)c2ccccc21 (stereo not given),102,-6,102,82
CCC(=O)Nc1cccc(NC(=O)c2cc3ccccc3o2)c1,x,-18,101,82
COc1ccc(CCCC(=O)O)cc1,x,-18,100,87
c1ccc(C2C3=C(Nc4ncnn42)c2ccccc2CCC3)cc1 (stereo not given),x,-7,97,117
CCC(C)NC(=O)c1ccc(NC(=O)C2=CSCCO2)cc1 (stereo not given),100,-32,84,87
COc1ccc(CCNC(=O)CCc2c(C)nc3c4cccnc4nn3c2C)cc1OC,100,-1,90,95
CCOC(=O)C1=NN(c2ccc(OC)cc2)C(c2ccccc2)CC1=O (stereo not given),x,-43,86,83
O=C(COc1ccc2ccc(=O)oc2c1)N1CCOCC1,x,-39,79,90
Cc1ccc(NC(=O)CCc2nnc3n(C)c(=O)c4sccc4n23)cc1C,94,11,102,91
COc1ccc(S(=O)(=O)c2c(C)cc(C)n(CC(=O)Nc3ccc(OC)cc3OC)c2=O)cc1,103,9,x,x
COc1cc(C2Nc3ccccc3-c3nnc(SC)nc3O2)cc(Br)c1O (stereo not given),105,-51,x,x
CC(C)n1c(-c2nonc2N)nc2ccccc21,102,-23,96,84
CCOC(=O)C1CCN(C(=O)c2nn(C)c(=O)c3ccccc23)CC1,x,-23,81,87
CCn1c(=O)n(CC)c2cc(S(=O)(=O)NC3CCCCC3)ccc21,x,13,107,99
COc1ccccc1NC(=O)c1cnc(SCC(=O)N2CCCc3ccccc32)n(C)c1=O,97,x,113,83
CC(=O)c1ccc(N2CCN(S(=O)(=O)c3ccc4[nH]c5c(c4c3)CCCC5)CC2)cc1,108,x,102,92
CCc1cccc(C)c1NC(=O)c1cc(CN2CCCC2)on1,104,x,92,89
O=C(O)c1c[nH]c(=O)cc1O,98,-19,113,72

# Arranged by molar mass (smallest number first): some entries from above.
SMILES,GIV Gai3 FP,HCMV NEC inh,Sa growth inh,Sa growth inh second temp
CNC(=O)NC1CC(=O)N(c2ccc(OC)cc2)C1 (stereo not given),103,-16,102,94
COc1ccc2nc(-c3ccco3)c(-c3ccco3)nc2c1,96,-38,106,55
c1ccc(C2C3=C(Nc4ncnn42)c2ccccc2CCC3)cc1 (stereo not given),x,-7,97,117

# Other entries.
SMILES,GIV Gai3 FP,HCMV NEC inh,Sa growth inh,Sa growth inh second temp
COC(=O)c1ccc(C2C3C(=CC4CCC3N4C)C(C#N)=C(N)C2(C#N)C#N)cc1 (stereo not given),113,-54,104,95
O=C(Nc1ccc(C(F)(F)F)cc1)c1cc(S(=O)(=O)N2CCCc3ccccc32)ccc1F,99,x,107,86
CCOc1ccc(OCC)c(NC(=O)CN(C)S(=O)(=O)c2ccc3[nH]c(=O)oc3c2)c1,104,x,82,71
COc1ccccc1N1CCN(C(=O)CCCn2c(=O)[nH]c3ccc(Br)cc3c2=O)CC1,103,-28,x,x
CCOC(=O)c1[nH]c(I)c(C(=O)OCC)c1C,109,6,132,116
CCOC(=O)c1nc(SCC(=O)Nc2cc(Cl)cc(Cl)c2)[nH]c1C,109,3,111,83
CC(NC(=O)c1ccco1)C(=O)N(C)Cc1ccc(C(F)(F)F)cc1 (stereo not given),x,6,101,89
CC(=O)c1cccc(NC(=O)c2nc(-c3ccccc3)n(-c3ccccc3C)n2)c1,99,-22,102,83
Cc1cc(-c2nc3ccccc3s2)ccc1N,100,-66,x,x
CC1(C2CCCCC2)Cc2ccccc2-c2nc(SCC(N)=O)n(Cc3ccccc3)c(=O)c21 (stereo not given),101,-2,x,x
CC1(C)CC(=O)C=C(Nc2ccc(N3CCOCC3)cc2)C1,103,-14,102,82
CC(NC(=O)CSc1nnnn1C)c1ccccc1 (stereo not given),x,-3,97,98
CCS(=O)(=O)Nc1ccc(Cl)cn1,98,-11,98,87
CC(C)(C)c1ccc(-c2cc(NS(=O)(=O)c3ccccc3)c(C(N)=O)s2)cc1,99,2,95,94
Cn1cc(-c2cc3n(n2)CCC(=O)N3CC(=O)O)c2ccccc21,100,-29,101,92
Cc1cccc(N2CCN(C(=O)c3ccncc3)CC2C)c1 (stereo not given),x,-9,66,91
O=C(c1noc2c1CCCC2)N1CCCCC1,94,x,100,90
CCOC(=O)c1ccc(CN(Cc2ccccc2C)S(=O)(=O)c2ccc3c(c2)OCCO3)cc1,105,x,87,81
Cc1ccc(-c2cc(C(=O)NCCc3ccccc3)c3c(-c4ccc(C)cc4)[nH]nc3n2)cc1,104,x,93,91
CCc1ccccc1NC(=O)C(CC)Sc1nc2ccncc2[nH]1 (stereo not given),104,x,105,80
Cc1ccccc1Nc1nnc(-c2ccc(C)c(S(=O)(=O)N3CCOCC3)c2)c2ccccc12,101,-13,110,97
O=C(Nc1ccc2nc(SCC(=O)N3CCc4ccccc43)sc2c1)c1cccc(Cl)c1,102,22,105,91
CC1CC(C(F)F)n2nc(C(=O)O)cc2N1 (stereo not given),106,-15,131,96
COc1ccc2c(c1)CCc1c(C(=O)Nc3c(C)nn(Cc4ccc(Cl)c(Cl)c4)c3C)noc1-2,103,14,100,99
Cc1ccn2cc(CNC(=O)c3ccccc3)nc2c1,111,x,92,80
SMILES,GIV Gai3 FP,HCMV NEC inh,Sa growth inh,Sa growth inh second temp
O=C(Cn1nc(N2CCN(c3ccccc3)CC2)ccc1=O)N1CCCC1,109,-7,x,x
Cn1ccnc1SCc1cc(=O)c(OC(=O)c2ccccc2)co1,103,-34,84,87
COc1ccccc1CC(=O)NC(=O)c1ccccc1O,104,-111,109,78
Cc1nc2ccccc2n1Cc1nnc2sc(-c3ccccn3)nn12,115,-4,x,x
CCCCn1cnc2c(c1=O)c1nc3ccccc3nc1n2CC1CCCO1 (stereo not given),110,-81,105,100
Cc1ccc2c(CC(=O)N3CCc4ccccc43)coc2c1,106,4,98,106
CCc1ccccc1N1C(=O)CN(S(=O)(=O)CC)CC1(C)C(=O)NC1CCCCC1 (stereo not given),108,x,81,85
O=C(O)CC1SC(=O)N(Cc2ccccc2)C1=O (stereo not given),101,-14,102,90
O=C(CSc1nc2ccccc2c(=O)n1Cc1ccco1)c1ccccc1,99,-40,103,81
Cc1nn(-c2ccccc2)c2c1C(C(=O)NC1CCCC1)N(CCC(C)C)C(=O)CS2 (stereo not given),101,-20,x,x
CN1CCN(C(=O)C(C(=O)N2CCN(C)CC2)C23CC4CC(CC(C4)C2)C3)CC1,99,-23,87,85
O=C(COC(=O)c1ccc(O)cc1)NCc1ccccc1,x,-35,120,81
Cc1cccc(C)c1NC(=O)Cn1c(=O)n(CCCS(=O)(=O)C2CCCCC2)c(=O)c2ccccc21,101,4,102,91
CCCCc1ccc(-n2nc3cc(C)c(NC(=O)c4ccc(C#N)cc4F)cc3n2)cc1,108,-7,119,89
COc1ccccc1NC(=O)Cn1cnc2onc(-c3ccc(Cl)cc3)c2c1=O,103,-2,x,x
CCC(NC(=O)Nc1cc(Cl)c(OC)cc1OC)c1c(-n2cccc2)sc2c1CCN(C)C2 (stereo not given),105,-6,88,-1
COc1ccc(CNC(=O)C2CCN(c3nc4ccc(C)cc4[nH]3)CC2)cc1,104,x,103,58
CCOc1ccccc1NC(=O)c1cc2c([nH]c1=O)CC(C)(C)CC2=O,101,-33,x,x
COc1cc(OC)c(NC(=O)c2c(C)oc3nc(C)nc(N4CCOCC4)c23)cc1Cl,103,x,95,82
CN(c1ccc(O)cc1)S(=O)(=O)c1ccc(Cl)c(C(F)(F)F)c1,x,-12,115,73
CCCCC(=O)Nc1ccc(C(=O)N2CCN(C)CC2)cc1,109,2,102,97
CNC(=O)c1csc(Cc2c(Cl)sc3ccc(Cl)cc23)n1,102,0,99,94
N#CC1(NC(=O)Cn2cnc3c(Cl)cc(Cl)cc3c2=O)CCCCC1,x,-25,86,97
CNC(=O)NC(=O)C(C)N1CCN(c2ccccc2)CC1 (stereo not given),x,4,99,97
CCOc1ccccc1NC(=O)C(NCc1ccco1)c1ccccc1 (stereo not given),x,19,91,98
CC1CN(CN2C(=O)C(=Nc3ccc4ccccc4c3)c3ccccc32)CC(C)O1 (stereo not given),x,-25,87,85
CC1CC(=O)N(c2cc(C(F)(F)F)cc(C(F)(F)F)c2)C1=O (stereo not given),98,-29,96,92

# Quoted at random: 2 entries already listed, in no set order.
SMILES,GIV Gai3 FP,HCMV NEC inh,Sa growth inh,Sa growth inh second temp
CN1CCN(C(=O)C(C(=O)N2CCN(C)CC2)C23CC4CC(CC(C4)C2)C3)CC1,99,-23,87,85
COc1ccccc1CC(=O)NC(=O)c1ccccc1O,104,-111,109,78
